# HPGD inh: HPGD (human) dehydrogenase inhibition | AID 894 | P15428 | purified HPGD, NADH fluorescence kinetic, PGE2 substrate | 4.3% of 150,000 active | Potency, µM, for inactives: at the top dose activity change, negative = inhibition, actives largely listed as inhibitors; active = well fitted inhibition curve with a large enough effect (not every such curve was filed as active); inconclusive = small, poorly fitted or top-dose-only effect, or another doubt; inactive = no such curve, though single readings can be large or run the other way;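 further: top concentration of the series not given in the record; plate controls included wells without enzyme; inactives centre near -10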
# Target sequence (P15428 whole entry, looked up): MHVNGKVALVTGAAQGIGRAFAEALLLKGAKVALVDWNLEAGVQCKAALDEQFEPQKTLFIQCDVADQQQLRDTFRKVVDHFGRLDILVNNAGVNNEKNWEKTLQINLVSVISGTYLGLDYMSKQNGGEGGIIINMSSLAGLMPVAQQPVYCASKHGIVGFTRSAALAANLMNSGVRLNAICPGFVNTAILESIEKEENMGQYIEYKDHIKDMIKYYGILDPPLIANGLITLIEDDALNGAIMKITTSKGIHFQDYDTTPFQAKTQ
#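 20 nM HPGD preincubated 15 min at room temperature with compound in 50 mM Tris-HCl pH 8, 0.01% Tween 20. Started with 1 mM NAD+ and 30 uM prostaglandin E2; NADH fluorescence (360/450 nm) read 5 times over 30-s intervals, last minus first.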
# Numbers without * were called inactive; ? = inconclusive; & = joins results of further samples. On the % scale 0 is the no-effect control and ±100 the full control effect; potency means the concentration at half of the fitted maximal effect.
SMILES,HPGD inh
CC(=O)c1c(C)[nH]c(C(=O)OCC(=O)N2c3ccccc3NC(=O)C2(C)C)c1C,0.9%
COc1ccc2oc(C(=O)c3ccccc3)c(N)c2c1,-13.6%
O=C(NNC(=S)Nc1ccccc1)c1ccncc1,-11.4%
Nc1c(S(=O)(=O)c2ccccc2)c2nc3ccccc3nc2n1CCN1CCOCC1,?
O=C(COC(=O)Cc1ccccc1F)Nc1cc(S(=O)(=O)N2CCOCC2)ccc1N1CCCC1,?
O=C1c2ccccc2C(Nc2ccc(S(=O)(=O)N3CCCCCC3)cc2)N1Cc1ccco1 (centres undefined),-0.1%
Cc1cc(NC(=O)c2ccccc2Oc2ccccc2)no1,-12.7%
CNc1oc(C)nc1S(=O)(=O)c1ccc(C)cc1,-6.7%
Cn1c(=O)cc(NCc2ccccc2)[nH]c1=O,-16.5%
CN(c1cc(=O)n2ccccc2n1)C1CCCCC1,-3.3%
CCn1cc(/C=C/C(=O)Nc2ccn(Cc3c(F)c(F)cc(F)c3F)n2)cn1,?
COCCN1Cc2cccc(C(=O)NCc3ccc4c(c3)OCO4)c2C1=O,?
COc1ccccc1OCCC(=O)OCC(=O)NCc1ccccc1,-9.4%
COc1ccccc1CN1CCC2(CC1)CCN(S(=O)(=O)c1ccccc1)CC2,0.8%
Cn1cccc1-c1nc2ccc(NC(=O)c3ccco3)cc2[nH]1,-12.6%
COCCNC(=O)[C@H]1C[C@@H]1[C@H](NP(=O)(c1ccccc1)c1ccccc1)c1ccccc1,-2.6%&-0.9%
CCNc1nc(NCC)nc(C(=O)OCCO)n1,-12.4%
O=S(=O)(c1ccccc1)N1CCC(n2nnc3cc(F)ccc32)CC1,-4.6%
CC(=O)Nc1ccc(CN2CCN(c3cccc(C(F)(F)F)c3)CC2)cc1,-0.5%
COc1ccccc1-c1cc(-c2ccc(C)cc2)nc(SCc2nnc(-c3ccccc3)o2)c1C#N,?
Cc1ccccc1/C(N)=N/OC(=O)c1cccs1,-20.0%
CO/N=C(/CNC(=O)c1ccc(F)cc1)c1ccc(Cl)cc1,-4.7%
Cc1nc([N+](=O)[O-])cn1CC(=O)NCCCO,-10.6%
Cc1ccc2c(CC(=O)Nc3sccc3C(N)=O)coc2c1,?
CCCNC(=O)c1ccc(CNc2c(N3CCC(C(=O)OCC)CC3)c(=O)c2=O)cc1,4.47µM*
O=C(Nc1ccc(Cl)cc1F)C1CCN(S(=O)(=O)c2cccnc2)CC1,-2.1%
COCCNC(=O)c1nn2cccnc2c1Cl,?
O=C(/C=C/c1cccc2ccccc12)c1ccncc1,?
N#CC1=C(SCC(=O)Nc2cccc3cccnc23)NC(=O)C(C#N)C12CCCCC2 (centres undefined),-12.8%
O=C(Nc1ncn[nH]1)c1ccc(Cl)c(S(=O)(=O)N2CCCCCC2)c1,-10.8%
CCOc1ccc(NC(=O)CN(c2cccc(C(F)(F)F)c2)S(C)(=O)=O)cc1,-9.6%
CCOc1ccc(S(=O)(=O)Nc2ccccc2C(=O)N/N=C/c2c(OC)ccc3ccccc23)cc1,-21.2%
CCC(CO)Nc1ncnc2c1cnn2-c1ccc(Cl)cc1 (centres undefined),?
CN(C)c1ccc(-c2nnc(-c3ccc(S(=O)(=O)C(F)F)cc3)o2)cc1,-15.6%
CCCCNC(=O)CSc1nc2ccccc2c(=O)n1C1CCCC1,-7.7%
CCCCCCOc1ccc(NC(=O)CC2C(=O)N(CC)C(=S)N2Cc2ccco2)cc1 (centres undefined),-11.7%
CSc1nsc(SCC(=O)Nc2nc3ccc(C)cc3s2)n1,-14.7%
OCCNc1ncnc2c1c(-c1ccccc1)c(-c1ccccc1)n2Cc1ccco1,?
CCC(C)n1c(SCC(=O)NCCc2ccc(S(N)(=O)=O)cc2)nc2ccsc2c1=O (centres undefined),-9.1%
CCN(CC)CCNC(=S)N1CCn2c(nc3ccccc32)C1,-2.4%
Nc1nc2ccccc2n1C(=O)c1ccco1,-12.8%
Cc1cc(=O)n2nc(N3CCC(C(=O)NCc4cccnc4)CC3)sc2n1,-9.0%
CC(C)(C)C(=O)Nc1ccccc1C(=O)Nc1cc(Cl)ccc1Cl,-6.0%
CCOC(=O)c1c(NC(=O)CCc2ccc(CC)o2)sc(C)c1C,?
CCOc1ccccc1OCC(=O)Nc1nnc(COC)s1,-8.4%
COc1ccc2c(c1)-c1nc(NC(=O)c3ccco3)sc1CC2,-23.1%
O=C(C(c1ccccc1)N1CCOCC1)N1CCOCC1 (centres undefined),-3.1%
CCOCCCNC(=O)c1ccccc1SCC,?
O=C(Cn1cnc2ccccc2c1=O)N1CCN(c2ccccc2)CC1,3.6%
CC(=O)c1c(N2CCCCC2)nc(=O)n(-c2ccccc2)c1C,-6.1%
Cc1ccc(C(C)C)c(OCc2ccc(C(=O)N/N=C/c3ccc(O)cc3O)cc2)c1,-13.0%
O=C(OCC(=O)N1CCOCC1)c1ccccc1SCC(=O)N1CCCC1,-5.6%
Cc1ccccc1C(=O)N1CCC(C(=O)Nc2ccc3c(c2)OCCO3)CC1,-15.7%
C1N2CN3CN1CN(C2)C3,3.0%
CCOC(=O)C1/C(=N\O)CC(C)(O)C(C(=O)OCC)C1c1ccc(OC)c(OC)c1 (centres undefined),1.8%
COc1ccc(NC(=O)C2CCC(C)(C(=O)O)C2(C)C)cc1 (centres undefined),4.0%
COc1ccc(-c2nnc(SCC(=O)OC3CCCCC3)o2)cc1OC,-14.8%
CCOC(=O)CCCCC(=O)c1[nH]c(=O)[nH]c1CSc1nc(-c2ccccc2)c(C#N)c(=O)[nH]1,20µM*
CC(C)[C@@H](CC(=O)N[C@@H]1CCCC[C@H]1C(=O)N[C@H](CC(=O)N[C@@H](CCC(=O)O)CC(=O)O)Cc1ccccc1)NC(=O)C[C@H](Cc1c[nH]c2ccccc12)NC(=O)[C@@H]1CNCC[C@H]1N,-6.8%
COC/C=C/C1=CC2=CC(=O)C(C)(OC(=O)c3ccc(Cl)nc3)C(=O)C2=CO1 (centres undefined),-16.2%

# Arranged by the number under HPGD inh (descending): 5 from the list above.
mol	HPGD inh
C1N2CN3CN1CN(C2)C3	3.0%
CCOC(=O)C1/C(=N\O)CC(C)(O)C(C(=O)OCC)C1c1ccc(OC)c(OC)c1 (centres undefined)	1.8%
CC(=O)c1c(N2CCCCC2)nc(=O)n(-c2ccccc2)c1C	-6.1%
Cc1ccc(C(C)C)c(OCc2ccc(C(=O)N/N=C/c3ccc(O)cc3O)cc2)c1	-13.0%
COc1ccc2c(c1)-c1nc(NC(=O)c3ccco3)sc1CC2	-23.1%

# Next section:
SMILES,HPGD inh
CCC1c2ccc(C)n2CCN1C(=O)Nc1ccccc1C(=O)OC (centres undefined),?
N#Cc1ccc(Sc2nc3ccccc3[nH]2)cc1C#N,-11.9%
CCOC(=O)N1CCC(N2Cc3cccc(C(=O)NCc4ccc(C)cc4)c3C2=O)CC1,-15.0%
Clc1ccc(Cc2nnc(-c3ccccc3Br)o2)cc1,20µM*
CCOc1cccc(NC(=O)CC#N)c1,-12.1%
C=CCC(CC=C)(NC(=O)c1ccccc1C)c1ccccc1,-13.5%
O=C(CN1C(=O)NC2(CCCC2)C1=O)Nc1ccccc1F,-0.1%
Cc1ccccc1-n1c(C)nnc1SCC(=O)NCC1CCCO1 (centres undefined),-1.8%
Cc1nc(Cl)c2oc3ccccc3c2n1,-15.2%
Cc1nn2c(N3CCCC3)cc(C(C)C)nc2c1-c1ccccc1,?
COc1ccc(C2=NCCc3cc(OC)c(OC)cc32)cc1,-8.6%
O=C(Cn1nnc(-c2ccccc2)n1)NCc1ccc2c(c1)OCO2,-12.6%
COC(=O)C1=C(C)NC(=O)C1(Nc1nccs1)C(F)(F)F (centres undefined),?
Cc1cccc(C(=O)Nc2ccccc2SCC2CSc3nc4ccccc4c(=O)n32)c1 (centres undefined),-17.2%
CCS(=O)(=O)N1CCN(c2ccc([N+](=O)[O-])c(N3CCOCC3)c2)CC1,?
COC(=O)C(c1ccccc1Cl)N1CCc2sccc2C1 (centres undefined),-10.3%&-5.1%
O=C(COc1ccc(Br)cc1)N1CCCCCC1,-19.9%
O=C(Nc1ccc(Cl)cc1)Nc1ccc(N2CCOCC2)cc1,-10.0%
CCOc1ccccc1OCCCOc1ccc([N+](=O)[O-])cc1Cl,-6.4%
CS(=O)(=O)Nc1ccc2c(c1)nc1n2CCOC1,-3.3%

# An excerpt of these results, tab-delimited.
compound	HPGD inh
COC(=O)C1=C(C)NC(=O)C1(Nc1nccs1)C(F)(F)F (centres undefined)	?
Cc1cccc(C(=O)Nc2ccccc2SCC2CSc3nc4ccccc4c(=O)n32)c1 (centres undefined)	-17.2%
CCS(=O)(=O)N1CCN(c2ccc([N+](=O)[O-])c(N3CCOCC3)c2)CC1	?
COC(=O)C(c1ccccc1Cl)N1CCc2sccc2C1 (centres undefined)	-10.3%&-5.1%
O=C(COc1ccc(Br)cc1)N1CCCCCC1	-19.9%
O=C(Nc1ccc(Cl)cc1)Nc1ccc(N2CCOCC2)cc1	-10.0%
CCOc1ccccc1OCCCOc1ccc([N+](=O)[O-])cc1Cl	-6.4%

# Next part:
SMILES,HPGD inh
CC1(C)CNC(=O)C=C(c2ccccc2)C1,?
COc1ccc(NC(=O)c2cc(SC)ccc2Cl)cc1,-4.6%
COc1ccc(S(=O)(=O)Oc2ccc3c(c2)O/C(=C\c2cccnc2)C3=O)cc1,15.8µM*
COc1cc(C(=O)NNC2=CC(=O)CC(C)(C)C2)cc(OC)c1OC,-1.5%
CCOC(=O)N1CCC(NC(=O)CN2C(=O)CCSc3ccccc32)CC1,-0.6%
COc1cc(C2CC(=O)NC3=C2C(=O)CC(C)(C)C3)ccc1O (centres undefined),-6.4%
Brc1ccc(C2=Nn3c(nnc3-c3cccnc3)SC2)s1,-5.1%
N#CCN1CCN(CC(=O)Nc2ccc(OCc3ccccc3)cc2)CC1,-15.2%
O=P(O)(O)c1ccccc1OCCCCCOc1ccccc1P(=O)(O)O,-3.7%
CCOC(=O)C1C(C#N)=C(N)OC(C)=C1c1ccncc1 (centres undefined),-4.3%
CC(C)CC(=O)NC(NC(=S)Nc1sc2c(c1C#N)CCCC2)C(Cl)(Cl)Cl (centres undefined),14.1µM*
Cc1onc(-c2c(Cl)cccc2Cl)c1C(=O)Nc1ccc2c(c1)OCCO2,-19.1%
CCCCCC(C)n1[nH]c(=O)c2c(C)cc(C)nc21 (centres undefined),-21.2%
CCOc1ccc(Cc2nccc3cc(OCC)c(OCC)cc23)cc1OCC,-15.1%&-10.3%
Cc1occc1C(=O)NNC(=O)c1ccc(F)cc1,-9.5%
COCCCn1c(=N)c(C(=O)NCC2CCCO2)cc2c(=O)n3cccc(C)c3nc21 (centres undefined),?
O=C(NCc1ccc2c(c1)OCO2)c1ccc(CN2CCc3ccccc3C2)cc1,-25.9%
O=C(CCCn1c(=O)c2sccc2n(Cc2ccc(F)cc2)c1=O)NCc1ccco1,-20.9%
CCn1c(COc2cc(C)cc(C)c2)nnc1SCC(=O)N1CCN(c2ccccc2)CC1,-4.5%
COc1ccc(C(=O)NCCSCc2ccccc2C)cc1,-11.8%
Cc1ccccc1-n1c(O)c(/C=N/N2CCCCC2c2cccnc2)c(=O)[nH]c1=O (centres undefined),-10.0%
COC(=O)CSc1nc2c(c(-c3ccco3)c1C#N)CCCC2,12.6µM*
CC1=NOC(=O)/C1=C\c1ccc(-c2cc(Cl)ccc2Cl)o1,1.41µM*
CCN1CCN(c2ncc(C(=O)Nc3cc(Cl)c(OC)cc3OC)c3ccccc23)CC1,-12.2%
C=CCn1c(SCC(=O)Nc2ccccc2C)nnc1-c1ccncc1,-12.5%
CC(CCc1ccccc1)NC(=O)C(=O)NCCc1ccccc1 (centres undefined),-5.1%
Cn1c(Cc2ccccc2)nnc1SCC(=O)Nc1ccccc1N1CCOCC1,-3.1%
O=C(Nc1ccc(N2CCOCC2)c(Cl)c1)c1cc2ccccc2o1,-6.1%

# Screens (PubChem)

# Not all compounds are listed; count on the stated rates, not on these rows.
